Anaer choline gr – growth inhibitors of anaerobic choline-fed gram-negatives, minimal medium, absorbance; Gram-negative bacterium anaerobic choline minimal medium; active compounds read low; many inactives read as strong as hits in the columns shown; calls only; 55,000 compounds, 0.2% hits;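 active = growth z-score on choline under -2 at 7 or 20 h with little or no fall on glycerol, limits in tiers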;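 note: stock transfer was 300 nL into about 50 µL; the organism is E. coli; final concentration not given here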
Anaer choline gr early – also measured in Anaer choline gr; calls as there; z-score; measured here: choline growth z-score, timepoint 1;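 score of optical density at 7 h as mean of two plates; lower means less growth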
An asterisk follows results filed as active; i = inactive.

canonical_smiles | Anaer choline gr | Anaer choline gr early
Cc1cccc(C)c1NC(=O)CN1CCN(Cc2ccccc2Cl)S1(=O)=O | i | 0.3
COc1ccc2cc3c(nc2c1)N(S(=O)(=O)c1cc(C)ccc1C)CC3 | i | 1.11
COC(=O)CC1=CC(SCC(=O)Nc2cc(Cl)c(OC)cc2OC)=Nc2ccccc2N1 | i | -0.97
COc1ccc(OC)c(C2=NS(=O)(=O)N(C)C(C(=O)NCC3CCCO3)=C2)c1 (stereo unspecified) | i | 0.46
COc1ccc(NS(=O)(=O)c2cc(-c3cc(C)[nH]n3)ccc2OC)c(OC)c1 | i | -0.27
CCCCn1cnc2c(oc3nc4c(cc32)CCCC4)c1=O | i | -0.64
COc1ccc(S(=O)(=O)N2CCN(CCNC(=O)C(C)C)CC2)cc1 | i | -0.56
c1cn(-c2cc(N3CCCC3)ncn2)cn1 | i | -0.68
COc1cc(OC)c(NC(=O)NCCCn2c(-c3ccncc3)nc3cccnc32)cc1Cl | i | -0.42
Cn1c(=O)c2c(SCC(=O)NCC3CCCO3)nc(C3CCCCC3)nc2n(C)c1=O (stereo unspecified) | i | 0
CN1CCN(C(=O)c2cc3n(n2)CC(C)(C(=O)NC2CCCC2)N(C)C3=O)CC1 (stereo unspecified) | i | 0.97
O=C(COc1ccc(F)cc1)Nc1nonc1-c1ccc(Br)cc1 | i | 1.65
COC(=O)c1cccc(NC(=O)Nc2cccc(-c3nnc(-c4ccccc4)o3)c2)c1 | i | 0.11
O=C(CSc1nnc(-c2ccncc2)o1)NCC1CCCO1 (stereo unspecified) | i | 0.68
Cc1nc(CNC(=O)[C@H]2CCCN2S(=O)(=O)c2ccc(C(C)(C)C)cc2)cs1 | i | 0.91
Cc1noc2ncnc(NCCN(C)C3CCCCC3)c12 | i | -1.91
O=C(c1cc(-c2ccncc2)n[nH]1)N1CCCC(C(=O)N2CCN(c3ccc(Cl)cc3)CC2)C1 (stereo unspecified) | i | -0.01
O=C(NC1CC1)c1ccc(Nc2ccnc(-c3ccccc3)n2)cc1 | i | 0.38
CCCS(=O)(=O)c1ncc(Cl)c(C(=O)Nc2sc3c(c2C(=O)NCC)CCCC3)n1 | i | 0.31
CC(C)CCn1c(=S)[nH]c2ncccc2c1=O | i | 0.32
O=C(NCCc1nc2cccnc2n1C1CCCCC1)Nc1ccccc1Br | i | -1.46
COc1ccc(N(Cc2nc3nc(C)cc(=O)n3[nH]2)S(C)(=O)=O)cc1 | i | -0.17
Cc1cc(C)cc(N2C(=O)N(Cc3ccc(Cl)cc3)C3CS(=O)(=O)CC32)c1 (stereo unspecified) | i | -0.75
COc1ccc(-c2ccc(=N)n(CCCC(=O)O)n2)cc1 | i | 0.4

Compounds above that contain a halogen (8):
canonical_smiles | Anaer choline gr | Anaer choline gr early
Cc1cccc(C)c1NC(=O)CN1CCN(Cc2ccccc2Cl)S1(=O)=O | i | 0.3
COC(=O)CC1=CC(SCC(=O)Nc2cc(Cl)c(OC)cc2OC)=Nc2ccccc2N1 | i | -0.97
COc1cc(OC)c(NC(=O)NCCCn2c(-c3ccncc3)nc3cccnc32)cc1Cl | i | -0.42
O=C(COc1ccc(F)cc1)Nc1nonc1-c1ccc(Br)cc1 | i | 1.65
O=C(c1cc(-c2ccncc2)n[nH]1)N1CCCC(C(=O)N2CCN(c3ccc(Cl)cc3)CC2)C1 (stereo unspecified) | i | -0.01
CCCS(=O)(=O)c1ncc(Cl)c(C(=O)Nc2sc3c(c2C(=O)NCC)CCCC3)n1 | i | 0.31
O=C(NCCc1nc2cccnc2n1C1CCCCC1)Nc1ccccc1Br | i | -1.46
Cc1cc(C)cc(N2C(=O)N(Cc3ccc(Cl)cc3)C3CS(=O)(=O)CC32)c1 (stereo unspecified) | i | -0.75

Remaining list, next part.
canonical_smiles | Anaer choline gr | Anaer choline gr early
Cc1ccc(Cl)cc1NC(=O)C1CCN(Cc2cnn(-c3ccccc3)c2-n2cccc2)CC1 | i | 0.8
CCn1c(=O)c(-c2noc(CCC(=O)NCCC(C)C)n2)nn(-c2ccccc2)c1=O | i | -1.47
CCc1nc(C(C)C)n2c(=O)n(CC#N)nc2c1C | i | -0.28
O=c1c(NCc2ccccc2Cl)nccn1-c1ccc2c(c1)OCO2 | i | -1.82
Cc1ccc(S(=O)(=O)Nc2ccc(Sc3c(C)c(C)nc4ncnn34)cc2)c(C)c1 | i | 0.25
Cc1ccc(Cl)cc1N1CCN(CCCNC(=O)c2nnc(Cc3c(F)cccc3Cl)o2)CC1 | i | -0.19
COc1ccc(-n2nnc(-c3nsc(Nc4ccc(Cl)cc4)n3)c2C)cc1 | i | 2.85
CCOc1cc(CNCCSc2nnnn2C)cc(Br)c1OCC(N)=O | i | -1.89
CC(C)Oc1ccccc1C1Nc2ccccc2NC2=C1C(=O)CC(c1ccccc1Cl)C2 (stereo unspecified) | i | 0.44
C=CCc1ccc(O)c(-c2cc(CC=C)ccc2O)c1 | i | -0.08
COc1ccc(-c2nn3c(=O)cc(CN4CCN(C(=O)Nc5cc(F)ccc5F)CC4)nc3s2)cc1 | i | 1.12
O=C(NCc1cccs1)C1CC(=O)N(c2ccc3c(c2)CCN3C(=O)C2CCC2)C1 (stereo unspecified) | i | 0.07
COc1ccc2c(c1)cc(C(=O)Nc1cccc(Br)c1)n2C | i | -0.16
O=C(c1cnn2ccccc12)N1CCC(C(O)(c2ccccc2)c2ccccc2)CC1 | i | 0.51
O=C(Nc1cccc2cccnc12)c1cc(-c2ccc(Cl)cc2)nc2ccccc12 | i | -2.8
O=C(c1cccc(-c2nc(-c3ccc(F)cc3)no2)c1)N1CCOCC1 | i | -0.52
COc1ccc(S(=O)(=O)Nc2cc3c(cc2N2CCOCC2)n(C)c(=O)c(=O)n3C)cc1Cl | i | 0.19
CCOC(=O)C1(CCCCCCOc2ccc(Cl)cc2)CO1 (stereo unspecified) | i | -0.96
Cn1c(C(=O)N2CCCCC2)cc2c(=O)n3ccccc3nc21 | i | -0.45
Cc1nc(Nc2nc(C)c3ccccc3n2)[nH]c(=O)c1CCC(C)C | i | -0.4
NS(=O)(=O)c1ccc(NC(=O)c2ccc(=O)n(Cc3cccc(F)c3)c2)cc1 | i | -1.13
c1ccc2c(c1)NC(=NCc1ccc3c(c1)OCO3)C1(CCCCCC1)N2 | i | -0.33
OC(CN1CCC(Cc2ccccc2)CC1)c1c[nH]c2ccc(F)cc12 (stereo unspecified) | i | -0.31
CCNc1nc(C(N)=O)c(NC(=O)c2cc(-c3ccccn3)nc3ccc(Br)cc23)s1 | i | -1.5
Cc1noc2nc(C)n(CC(=O)NC3CCCCC3)c(=O)c12 | i | -0.14
O=S(=O)(c1ccc(F)c(Cl)c1)N1CCC2(CC1)Nc1cc(F)ccc1-n1cccc12 | i | -0.83
CCCOc1ccc(CN2CCCC2c2cc(CCC)on2)cc1 (stereo unspecified) | i | 0.06
Cc1ccc(-c2onc(C)c2C)cc1S(=O)(=O)NC1CCN(Cc2ccccc2)CC1 | i | 0.42
Cc1ccc(C2C3=C(CC(C)(C)CC3=O)Nc3ccccc3N2CC(=O)NC2CCCC2)cc1 (stereo unspecified) | i | 0.6
CC(=O)Nc1ccc(N2CCn3c(nc4ccccc43)C2)cc1 | i | -1.05
CC(=O)N1CCC(C(=O)NCc2ccccc2)(N(C(=O)c2ccc(C)cc2)c2ccc(Cl)cc2F)CC1 | i | -0.12
CCCCCn1c(=O)[nH]c2cc(C(=O)NCCCN3CCCCC3CC)ccc2c1=O (stereo unspecified) | i | -1.24
O=C(O)CCC/C=C\C[C@@H]1[C@@H](/C=C/[C@@H](O)C2Cc3ccccc3C2)[C@@H](F)C[C@@H]1O | i | -0.68
Cn1cc(-c2nc(-c3ccccn3)no2)c(=O)c2cc(F)c(N3CCCCC3)cc21 | i | -0.54
Cc1c(/C=C/c2nc3ccccc3c(=O)n2CCCO)c2ccccc2n1C | i | -1.99
COc1cc2c(cc1OC)C(C(=O)Nc1ccc(C)cc1Br)C(c1cccnc1)N(C)C2=O (stereo unspecified) | i | 0.35
c1cc(-c2nc3c(c(NCCCN4CCOCC4)n2)CCC3)ccn1 | i | 0.29
CCN(Cc1ccccc1)C(=O)c1cccc(C2CCCN(C(=O)NC(C)C)C2)c1 (stereo unspecified) | i | 0.17
Cc1cc(=O)[nH]c(-n2nc(C)cc2C)n1 | i | -4.88
COC(=O)c1sc2ccc(NS(=O)(=O)c3cc(C)ccc3NC(C)=O)cc2c1OC | i | -0.04
CCOc1ccc2nc(-n3nc(C)c4c3NC(=O)CC4c3ccc4c(c3)OCO4)sc2c1 (stereo unspecified) | i | -1.16
CN1C(=O)CN(S(C)(=O)=O)CC1(C)C(=O)NCC(=O)NCCCN1CCc2ccccc2C1 (stereo unspecified) | i | 0.16
Cc1ccc(NC(=O)C2CCN(c3nc(-c4ccccc4C)no3)CC2)nc1 | i | -0.33
CC(=O)Nc1c2n(c3ccccc13)CC(C)(C(=O)NC1CCCC1)N(C1CCC(C)CC1)C2=O (stereo unspecified) | i | 0.18
COc1cc(OC)c(NC(=O)c2cc(C(F)(F)F)n(C)n2)cc1Cl | i | 0.29
CCNC(=O)c1nc(N2CCCC2)c2ccccc2n1 | i | -2.17
CC1(C)C(=O)NN(c2cccc(O)c2)C1=O | i | -1.99
CC(C)CCNS(=O)(=O)c1ccccc1-c1nc(-c2ccccc2)no1 | i | -0.15
Cc1ccc(-c2nc3nc(C)cc(N(CCO)Cc4ccccc4)n3n2)cc1 | i | 1.31
COc1ccc(N(Cc2nc3nc(C)c(Cl)c(C)n3n2)C(=O)C(C)(C)C)cc1 | i | 0.48
Brc1ccc(OCc2nnc3sc(-c4ccccn4)nn23)cc1 | i | -1.83
Cc1noc(C)c1C1CCCN1Cc1cccc(OCc2ccccc2)c1 (stereo unspecified) | i | -0.61
Cc1ccc(-c2c(C(F)(F)F)nn3c(NCCN4CCOCC4)cc(C)nc23)cc1 | i | -0.44
COc1ccc(S(=O)(=O)Nc2cc3c(cc2Oc2ccccc2)n(C)c(=O)c(=O)n3C)cc1 | i | 0.36
COc1ccc(NS(=O)(=O)c2cc(-c3cc(C(F)(F)F)on3)sc2C)cc1Cl | i | 1.02
CC1CCCN(C(=O)CCCn2c3ccccc3c3cnn(C)c(=O)c32)C1 (stereo unspecified) | i | -0.3
CC(N)(C(=O)O)c1ccc(-c2nn[nH]n2)cc1 (stereo unspecified) | i | -1.76
CCOc1ccc(-c2c(C)nn3c(C)c(C(=O)Nc4ccc(N(CC)CC)cc4C)cnc23)cc1OCC | i | -0.13
CN1C(C(=O)NCC2CCCO2)=CC(c2ccc3c(c2)OCO3)=NS1(=O)=O (stereo unspecified) | i | 1.01
Cc1[nH]c2ccc(-c3nnc(SCC(=O)NC(C)c4nc5ccccc5[nH]4)o3)cc2c1C (stereo unspecified) | i | -0.82

(more compounds)
canonical_smiles | Anaer choline gr | Anaer choline gr early
O=C1Nc2ccccc2Oc2cc(Oc3ccccc3)c(S(=O)(=O)N3CCOCC3)cc21 | i | -0.44
CCOc1ccc(-c2noc(CSc3ccc(-c4ccc5c(c4)OCO5)nn3)n2)cc1OC | i | 0.91
NC(Cc1ccc(Cl)cc1)C(=O)O (stereo unspecified) | i | 0.6
Cc1oc(-c2ccccc2)nc1Cn1nnc(-c2nc(-c3ccc(Br)cc3)no2)c1C | i | -0.5
Cc1nn(-c2cc(N3CCCC3)ncn2)c(C)c1CCC(=O)Nc1ccc(Br)cc1 | i | -0.63
O=C(NCc1cccnc1)c1ccc(CN2C(=O)CSc3ncccc32)cc1 | i | -1.7
Cc1ccc(NC(=O)CCc2nnc3ccc(NCc4ccc(F)cc4)nn23)cc1 | i | -2.43
COc1ccc(CC(=O)NCC2COc3ccccc3O2)cc1OC (stereo unspecified) | i | 0.52
CCCN1C(=O)c2ccccc2Sc2cc(-c3noc(/C=C/c4ccccc4)n3)ccc21 | i | 0.3
CC(C)NC(=O)CSc1nnc(-c2cc3ccccc3n2C)o1 | i | 1.99
Cc1ccc(CN2C=NS(=O)(=O)c3ccccc32)cc1 | i | -0.69
CCOC(=O)c1ccc(NC(=O)N2CCCN(c3ccc(=O)n(-c4ccc(F)cc4)n3)CC2)cc1 | i | -0.05
CCOC(=O)c1ccccc1NC(=O)CSc1nc2c(c(=O)n1CCOC)SCC2 | i | -1.2
Cc1nnc(-c2ccc(S(=O)(=O)N3CCCC(C)C3)o2)o1 (stereo unspecified) | i | 0
Cc1ccc(S(=O)(=O)NCc2ccc(-c3nn4c(C)nnc4s3)cc2)cc1 | i | 0.48
NC(=O)CSc1nc2nc[nH]c2c(=O)[nH]1 | i | -0.16
Cc1ccc(COCc2nn(C)c3c2CN(S(=O)(=O)c2ccc(C(C)(C)C)cc2)CC3)cc1 | i | 1.09
Cc1ccc(NC(=O)C2=Cc3cc(C)ccc3OC=C2)c(C)c1 | i | 1.67
CC1(C(=O)NC2CCCC2)Cn2c(cc3ccccc32)C(=O)N1Cc1ccccn1 (stereo unspecified) | i | -1.11
Cc1[nH]c(C(=O)N2CCCC(C(=O)NC3CCCCC3)C2)c(C)c1C(=O)OC(C)C (stereo unspecified) | i | -0.16
Cc1cccc(Oc2ccc(-c3noc(CNS(=O)(=O)c4ccccc4)n3)cc2)c1 | i | 0.57
Cc1cccc(-c2cc(Nc3cccc(C(=O)NC(C)C)c3)ncn2)c1 | i | -0.24
Cc1ccc(C)c(CNS(=O)(=O)c2c(C)sc(C)c2-c2n[nH]c(C)c2C)c1 | i | -0.32
O=C(NC1CCCc2ccccc21)c1ccc(-c2cccc(F)c2)nc1 (stereo unspecified) | i | -0.12
CCOC(=O)C1CCN(c2nc3ccccc3n2Cc2ccccc2F)CC1 | i | -1.59

Screens deposited in PubChem by ICCB-Longwood Screening Facility, Harvard Medical School.

The list is partial. The share of hits here may be higher or lower than overall.
